Compound activity as filed in PubChem BioAssay.
CSC inhib = cancer stem cell viability inhibitors, primary screen, luminescence; cancer stem cell-like cells viability; inhibition, % at 7.5 µM; 300,000 tested, 1.1% active;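 active = mean at 75% or more and at least half the replicates too; tested in HMLE shEcad cells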;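 also: 0% = median of negative and 100% = median of positive control wells; the first replicate is given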
PABP polyA inh = PABP poly(A) RNA binding inhibitors, primary screen, biochemical, fluorescence polarization, uHTS. 290,000 tested, 1% active. Polyadenylate-binding protein 1 (Homo sapiens), P11940. inhibition, % at 35 µM;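 active = 50% or more with normal probe brightness, or confirmed in later tests; about a fifth of its hits are not listed in these tables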;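 also: calls also rest on retests at 20 µM and on dose response follow-up; controls were probe without protein and protein plus probe with vehicle; some compounds called inactive have numbers as strong as hits; many hits fall short of the cut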
Target sequence (P11940 whole entry, looked up): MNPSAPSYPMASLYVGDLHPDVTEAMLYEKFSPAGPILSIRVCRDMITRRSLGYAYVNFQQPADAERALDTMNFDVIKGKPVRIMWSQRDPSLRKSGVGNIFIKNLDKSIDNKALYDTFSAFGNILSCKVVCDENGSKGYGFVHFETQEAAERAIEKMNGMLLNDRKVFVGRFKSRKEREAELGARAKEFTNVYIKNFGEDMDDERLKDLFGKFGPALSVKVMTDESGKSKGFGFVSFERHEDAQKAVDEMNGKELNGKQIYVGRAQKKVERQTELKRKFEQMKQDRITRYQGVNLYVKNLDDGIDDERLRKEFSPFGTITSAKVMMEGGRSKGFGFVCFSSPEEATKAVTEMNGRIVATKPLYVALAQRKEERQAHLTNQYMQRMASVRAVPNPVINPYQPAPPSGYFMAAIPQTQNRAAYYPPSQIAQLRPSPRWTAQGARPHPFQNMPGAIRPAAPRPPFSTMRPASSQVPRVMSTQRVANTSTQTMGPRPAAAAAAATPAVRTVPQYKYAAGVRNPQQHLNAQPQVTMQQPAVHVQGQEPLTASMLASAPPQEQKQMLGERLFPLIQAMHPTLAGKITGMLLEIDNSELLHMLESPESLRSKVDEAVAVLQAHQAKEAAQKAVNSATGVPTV
Yeast UUG start = modulators of yeast start codon fidelity, primary screen, whole organism, S. cerevisiae, single point, plate reader | 350,000 tested, 0.13% active | activity score, % at 18.7 µM | S. cerevisiae UUG-firefly luciferase reporter, luminescence/redox ratio;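 active = replicate mean at a twofold rise or more, about +100% in these data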;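 also: firefly luciferase made from a UUG start codon reports start codon fidelity; reporter light over untreated wells divided by growth signal over untreated wells; some hits fall short of that in this replicate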
eIF4H FP inh = human eIF4H binding inhibitors, primary screen, translation initiation inhibitor project, biochemical, uHTS, fluorescence polarization; Eukaryotic translation initiation factor 4H (Homo sapiens), Q15056; eIF4H fluorescence polarization binding assay; inhibition, % at 35 µM; 290,000 tested, 0.94% active;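 active = 50% or more with normal probe brightness, or confirmed in later tests; about a fifth of its hits are not listed in these tables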;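 also: calls also rest on retests at 20 µM and on dose response follow-up; 0% = protein and probe with vehicle and 100% = probe without protein; strong numbers were not always called active; many hits fall short of the cut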
HIV Env fusion = inhibitors of HIV-1 Env-driven cell-cell fusion, primary screen, HeLa-JRFL effector, CEM21 target cells, luciferase. inhibition, % at 12.3 µM. 360,000 tested, 1.1% active. AID 651610, 2012;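 active = mean replicate inhibition score of at least 50 and every replicate individually at or above 50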;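 also: 0% = plate neutral controls and 100% = maraviroc near 300 nM; one replicate is shown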
Rce1 inhib = yeast Rce1p protease inhibitors, primary screen, biochemical, fluorescence, cell-free homogeneous. yeast membranes, quenched prenylated peptide cleavage fluorescence. calls only. 290,000 tested, 0.27% active;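 active = fall in fluorescence gain of 50% or more versus controls, with final raw signal at or below 3038400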;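 also: plate controls were neutral control wells for no effect and wells lacking membranes for full effect; tested at 10 µM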
Target sequence (Q03530 whole entry, looked up): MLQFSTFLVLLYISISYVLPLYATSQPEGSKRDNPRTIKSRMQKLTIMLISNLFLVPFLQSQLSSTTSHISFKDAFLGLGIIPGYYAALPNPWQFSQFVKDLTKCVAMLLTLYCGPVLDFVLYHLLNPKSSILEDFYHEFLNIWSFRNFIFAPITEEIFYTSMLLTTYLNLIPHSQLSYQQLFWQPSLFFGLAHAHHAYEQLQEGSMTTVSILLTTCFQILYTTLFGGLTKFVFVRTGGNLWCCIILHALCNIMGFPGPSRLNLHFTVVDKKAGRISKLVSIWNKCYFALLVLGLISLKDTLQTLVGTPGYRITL
MT1-MMP act inh = blockers of MT1-MMP proenzyme processing, primary screen, HT1080 RFP-PRO-GFP cells, GFP/RFP fluorescence. 360,000 tested, 0.061% active. AID 651647, 2012. Matrix metalloproteinase-14 (Homo sapiens), P50281. GFP/RFP ratio fluorescence, overnight; percent of plate control window, DMSO zero. GFP/RFP ratio change, % at 20 µM;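 active = GFP/RFP ratio change of at least 30% with cell ATP level not reduced by more than half and red fluorescence within 50% of control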; also: strong numbers were not always called active
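Compound: 20 µM single dose, 1% DMSO / System: HT1080 RFP-PRO-GFP cells / Controls: DMSO and RFP-L50D-GFP cell wells / Read-out basis: GFP/RFP fluorescence ratio / Schedule: overnight compound exposure at 37 °C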
eIF4H FP inh retest = recorded beside eIF4H FP inh, whose call it bears; inhibition, %; compound at 20 µM; confirmation average;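 mean of two retest wells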
PABP polyA inh retest = second read-out of PABP polyA inh, no call of its own (marks repeat the call); inhibition, %; compound at 20 µM; confirmation repeats;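 mean of two retest wells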
MT1-MMP act inh RFP = further read-out of MT1-MMP act inh, marked with its call; RFP signal change, %; measured here: RFP expression control read;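 0 = vehicle wells; hits needed this value within 50% of zero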
Numbers without * were called inactive; i = inactive; x = not tested or not shown.

SMILES	CSC inhib	PABP polyA inh	Yeast UUG start	eIF4H FP inh	HIV Env fusion	Rce1 inhib	MT1-MMP act inh	MT1-MMP act inh RFP	others
CN1N=C(C(F)(F)F)CC1=O	-4	48	x	0	14	i	3	3
Cc1ccc(S(=O)(=O)CCC(=O)Nc2nc(C(C)(C)C)cs2)cc1	-5	5	-8	2	2	i	2	-12
CC1CN(Cc2nc3c(c(=O)n(C)c(=O)n3C)n2CC(O)CO)CC(C)O1 (stereo not drawn)	-4	2	-24	-4	-263	i	4	5
COc1ccc(CCNC(=O)CSc2nnc3ccc(-c4cccnc4)nn23)cc1	-8	3	-18	2	12	i	2	2
c1csc(-c2ccnc3ncnn23)c1	-16	-4	x	9	-17	i	-1	0
CCOC(=O)/C(C#N)=C/c1c(N2CCN(c3ccccc3)CC2)nc2ccccn2c1=O	-6	2	-6	-4	-20	i	-4	4
C=CCn1c(SCC(=O)N2CCCC2)nc2c([nH]c3ccccc32)c1=O	-9	-4	-16	-5	24	i	-1	0
CCN(CC)S(=O)(=O)c1ccc2[nH]c(=O)cc(C(=O)Nc3ccc(C)cc3)c2c1	-1	22	-5	-2	7	i	-12	0
CC(C)c1ccc(NC(=O)C2CCN(c3ncnc4c3nc3n4CCCCC3)CC2)cc1	-14	2	-12	-2	1	i	4	-12
O=C(Cc1ccc(Cl)cc1)NCC(=O)N1CCN(c2ccccc2)CC1	9	-1	-6	-14	8	i	0	-1
CC(C)(C)C(C(=O)Oc1ccccc1)c1ccccc1 (stereo not drawn)	-1	x	-15	x	-9	x	1	1
CCOc1ccc(CNC(=O)CCc2cn(Cc3ccccc3)c3ccccc23)cc1	x	4	-12	-5	-40	i	-1	-4
COc1ccccc1Nc1nc(N)nc(CCl)n1	-6	7	-5	24	-9	i	-2	-1
COc1cc(C(C)=O)ccc1COc1ccc(C(=O)OCC(=O)NC(C)(C)C)cc1OC	-6	-1	x	4	9	i	5	3
O=C(/C=C/c1ccc(-c2cccc([N+](=O)[O-])c2)o1)N1CCOCC1	5	-4	-9	1	-35	i	3	-1
COc1ccc(Cl)c(-c2cc(C(=O)NC(C)C)[nH]n2)c1	x	x	-10	x	-12	x	1	1
CCOC(=O)C1CCCN(S(=O)(=O)c2cc(OCC(N)=O)c(C)cc2Cl)C1 (stereo not drawn)	-11	2	-4	4	-55	i	1	-4
Cn1c(O)c(C=NCCCCCC(=O)O)c(=O)n(C)c1=O	x	x	-24	x	-1	x	1	5
O=C1CCCCCN1CSc1nc2ccccc2s1	-34	10	x	2	x	i	0	-4
Cc1ccc(C2CC2C(=O)NNC(=S)Nc2cccc(C)c2)cc1 (stereo not drawn)	34	-5	-22	25	-44	i	-3	-5
CCCn1c(CC)nc([N+](=O)[O-])c1Sc1ccc(C)cc1	-9	-7	0	-4	-16	i	-6	-9
CC(C)(C)OC(=O)N[C@@H](Cc1ccccc1)c1nnc(SCC(N)=O)o1	-4	-4	x	11	-11	i	4	6
Cn1nnnc1SCc1nnc(-c2ccc(Cl)cc2)o1	-4	-5	-28	-4	-21	x	-5	-3
Cn1nc(C(=O)N2CCN(c3ccc([N+](=O)[O-])cc3)CC2)c2c1-c1ccccc1S(=O)(=O)C2	-3	2	-23	-5	x	i	4	2
O=C(Nc1ccc(S(=O)(=O)N2CCOCC2)cc1)c1cc(-c2cc(Cl)ccc2O)n[nH]1	94*	-8	x	-7	-20	i	-2	-26

Looked up by structure from above, 3 records:
SMILES	CSC inhib	PABP polyA inh	Yeast UUG start	eIF4H FP inh	HIV Env fusion	Rce1 inhib	MT1-MMP act inh	MT1-MMP act inh RFP	others
CC(C)(C)OC(=O)N[C@@H](Cc1ccccc1)c1nnc(SCC(N)=O)o1	-4	-4	x	11	-11	i	4	6
COc1cc(C(C)=O)ccc1COc1ccc(C(=O)OCC(=O)NC(C)(C)C)cc1OC	-6	-1	x	4	9	i	5	3
Cc1ccc(S(=O)(=O)CCC(=O)Nc2nc(C(C)(C)C)cs2)cc1	-5	5	-8	2	2	i	2	-12

More entries follow.
SMILES	CSC inhib	PABP polyA inh	Yeast UUG start	eIF4H FP inh	HIV Env fusion	Rce1 inhib	MT1-MMP act inh	MT1-MMP act inh RFP	others
O=C(OCc1cnc(Cl)s1)c1cccs1	-8	1	-13	-1	-5	i	3	5
CCOC(=O)c1sc2nc(CN3CCN(c4cccc(C(F)(F)F)c4)CC3)[nH]c(=O)c2c1C	7	-2	x	7	9	i	-21	-2
CCC(=O)Nc1nnc(S(=O)(=O)N(C)c2ccccc2)s1	-16	-1	-18	-7	5	i	23	2
Cc1cc(C)c([C@@H]2C[C@H]3CN(C4CCCC4)C(=O)[C@]34CCCN24)c(-n2cccn2)c1	-6	14	-27	12	-63	i	-9	5
Cc1ccsc1C1Nc2ccccc2C(=O)N1O (stereo not drawn)	0	1	5	-12	-25	i	-1	0
O=C(Nc1ccc(S(=O)(=O)Nc2ccccn2)cc1)c1cccc(Cl)c1	-6	27	-10	33	8	i	3	-1
COC(=O)Cn1c(CN(Cc2ccccc2)Cc2ccccc2)nc2c1c(=O)[nH]c(=O)n2C	-2	0	7	-5	x	i	-3	-6
COc1cc(CC(=O)OCC(=O)c2ccc[nH]2)cc(OC)c1OC	-1	x	-8	x	x	x	-2	3
Cn1c(C(=O)N2CCN(C(=O)c3ccco3)CC2)cc2c(=O)n(C)c3ccccc3c21	-6	1	6	10	1	i	3	2
Cc1cc(-c2csc(NC(=O)c3ccc(C#N)cc3)n2)c(C)n1Cc1ccco1	-9	8	x	103	x	i	-10	2	eIF4H FP inh retest=31;PABP polyA inh retest=14
O=C(COC(=O)C1COc2ccccc2O1)Nc1cccc(F)c1 (stereo not drawn)	x	x	-16	x	-18	x	-4	1
CCN(CC(=O)N1CCC(C(N)=O)CC1)S(=O)(=O)c1cc(Cl)ccc1Cl	x	x	-9	x	-14	x	3	9
CC(=O)c1cccc(NC(=O)C2Cc3c(-c4cccc(C(C)=O)c4)ccnc3O2)c1 (stereo not drawn)	x	x	-8	x	0	x	-5	-23
O=C(Nc1nc(-c2cc3ccccc3o2)cs1)c1ccc(S(=O)(=O)N2CCCC2)cc1	18	1	-5	-11	57*	i	-8	-31
CC1CCCN(C(=O)NC(=O)c2ccc(Cl)cc2)C1 (stereo not drawn)	-4	-6	-3	-11	-5	i	3	4
CCCN1CCN(C(=O)c2ccc(Sc3ccc(C)cc3)c(NC(C)=O)c2)CC1	-1	-9	x	4	x	i	2	0
Cc1ccc(NC(=S)N(CCCN2CCCC(C)C2)Cc2ccco2)cc1C (stereo not drawn)	-8	5	x	-3	1	i	1	-1
CCOc1ccc(-c2nnn(CC(=O)NCc3ccccc3)n2)cc1	2	3	x	17	-78	i	1	-2
Cc1sc2ncnc(SCC(=O)NNC(=O)c3ccco3)c2c1C	-14	-10	x	-10	5	i	-6	0
COC(=O)CSc1ccc2nnc(CCNS(=O)(=O)c3ccc(C)cc3)n2n1	x	-1	x	1	9	i	0	6
CC(C)N(Cc1ccccc1)C(=S)Nc1ccc(F)cc1	-17	35	x	1	16	i	5	-2
CC(=O)C1=C(c2ccccc2)NC(=S)NC1c1ccc(O)c(O)c1 (stereo not drawn)	-4	-2	x	14	-14	i	2	1
Cc1cc(CCCCCCCCc2cc(C)cc(=O)o2)oc(=O)c1	-1	-4	-13	-10	-10	i	5	5
Cc1ccc(-n2nnnc2SCC(=O)Nc2cccc(NC(=O)c3ccco3)c2)cc1C	15	-6	-10	-10	x	i	6	-3
COc1ccc(-n2c(C)cc(=O)c3c2CC(C)(C)CC3=O)cc1	-9	1	-10	-1	x	i	2	7
Additional entries.
SMILES	CSC inhib	PABP polyA inh	Yeast UUG start	eIF4H FP inh	HIV Env fusion	Rce1 inhib	MT1-MMP act inh	MT1-MMP act inh RFP	others
Cc1ccc(Oc2ccc(OCC(=O)NC(CC(C)C)C(=O)O)cc2)cc1 (stereo not drawn)	0	3	x	-4	9	i	5	5
COc1ccccc1N1CCN(C2CCCN(C(=O)c3cscn3)C2)CC1 (stereo not drawn)	-8	-6	-5	-3	1	i	-5	2
O=C(COC(=O)c1ccc([N+](=O)[O-])o1)Nc1ccc2c(c1)OC(F)(F)O2	x	x	1	x	-8	x	-1	1
CCCNC(=O)N1CCN(Cc2ccco2)CC1	-1	6	-10	-1	-19	i	0	-1
NC1=NC(=O)/C(=C/c2ccc(OCC(=O)O)cc2)S1	-12	-1	2	2	5	i	2	6
Cn1c(CN2CCOCC2)nnc1SCc1ccc(C#N)cc1	-2	-2	x	1	10	i	-2	-1
COc1cccc(C(=O)NCCCNC(=O)c2ccco2)c1	x	4	-17	-5	0	i	0	4
COC(=O)c1sc(N)c(C(=O)OC)c1COC(=O)[C@@H](NS(=O)(=O)c1cccc(Cl)c1)C(C)C	16	-10	x	-12	19	i	-14	-15
Cc1[nH]n(-c2nc(-c3cccc([N+](=O)[O-])c3)cs2)c(=O)c1C	13	1	-1	6	-56	i	8	-4
CCOc1ccc2[nH]c(=O)c(CN(CCN3CCCC3)C(=S)Nc3ccccc3OC)cc2c1	-9	-3	x	-11	-13	i	-1	7
COc1ccc(N(CC(=O)NN=C2CCCCCCC2)S(=O)(=O)c2ccccc2)cc1Cl	-1	-9	-8	-6	x	i	-3	2
Cc1ccc(Cn2nc(C)c(NC(=O)C3CC3)c2C)cc1	17	4	-7	3	-12	i	-2	1
COc1ccc(C(=O)C[n+]2ccccc2/C=N/O)cc1	-5	-2	x	6	-14	i	3	6
O=C1c2ccccc2C(=O)N1CCc1nc2ccccc2c(=O)n1Cc1ccco1	-12	-1	11	1	x	i	-3	-3
Cn1c(=O)oc2cc(S(=O)(=O)Nc3ccc(Cl)cc3F)ccc21	-2	-3	-9	11	-14	i	2	4
CC(=O)N(C)c1cccc(-c2ccc3nnc(C)n3n2)c1	x	4	-14	-6	6	i	1	4

In the list so far, 9 have an NH in an aromatic ring.
SMILES	CSC inhib	PABP polyA inh	Yeast UUG start	eIF4H FP inh	HIV Env fusion	Rce1 inhib	MT1-MMP act inh	MT1-MMP act inh RFP	others
C=CCn1c(SCC(=O)N2CCCC2)nc2c([nH]c3ccccc32)c1=O	-9	-4	-16	-5	24	i	-1	0
CCN(CC)S(=O)(=O)c1ccc2[nH]c(=O)cc(C(=O)Nc3ccc(C)cc3)c2c1	-1	22	-5	-2	7	i	-12	0
COc1ccc(Cl)c(-c2cc(C(=O)NC(C)C)[nH]n2)c1	x	x	-10	x	-12	x	1	1
O=C(Nc1ccc(S(=O)(=O)N2CCOCC2)cc1)c1cc(-c2cc(Cl)ccc2O)n[nH]1	94*	-8	x	-7	-20	i	-2	-26
CCOC(=O)c1sc2nc(CN3CCN(c4cccc(C(F)(F)F)c4)CC3)[nH]c(=O)c2c1C	7	-2	x	7	9	i	-21	-2
COC(=O)Cn1c(CN(Cc2ccccc2)Cc2ccccc2)nc2c1c(=O)[nH]c(=O)n2C	-2	0	7	-5	x	i	-3	-6
COc1cc(CC(=O)OCC(=O)c2ccc[nH]2)cc(OC)c1OC	-1	x	-8	x	x	x	-2	3
Cc1[nH]n(-c2nc(-c3cccc([N+](=O)[O-])c3)cs2)c(=O)c1C	13	1	-1	6	-56	i	8	-4
CCOc1ccc2[nH]c(=O)c(CN(CCN3CCCC3)C(=S)Nc3ccccc3OC)cc2c1	-9	-3	x	-11	-13	i	-1	7
